PK Bst = modulators of Bacillus stearothermophilus pyruvate kinase; partly purified Bacillus stearothermophilus pyruvate kinase, luminescence ATP production; ribose 5-phosphate activator present at AC10; hit rate 1.2% among 51,000; AID 361; Potency, µM; in the data active means potency below about 11 µM; inconclusive means mostly about 12 µM to 25 µM; inactive means weaker than that;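 the screen sought inhibitors and activators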;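 further: potency means the concentration at half of the fitted maximal effect; scaled between full activation by ribose 5 phosphate and full inhibition by luteolin; about four in five hits inhibit and the cells do not say which; series up to 57 µM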
TsaE inh = YjeE (TsaE) inhibition, E. coli | P0AF67 | purified YjeE, fluorescence polarisation of a bound ADP probe | Potency, µM | hit rate 0.05% among 71,000 | AID 605; active = well fitted falling curve; inconclusive = weaker or top-dose-only fall, or a rising curve; inactive = flat or poorly fitted curve;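 further: top concentration of the series not given in the record; excess ADP was the control for the full effect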
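Purified YjeE (10 uM) with BODIPY Texas Red-labeled ADP probe (2 uM); compounds pin-transferred, 15 min at room temperature. Binding inhibition read as decreased fluorescence polarization; ADP titration as control.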
Numbers without * were called inactive; i = inactive; ? = inconclusive; · = no result given.

Results follow in this order: PK Bst, TsaE inh
> CCCCCCn1ccc(=N)cc1
 : >57, i
> O=C(O)CC(C(=O)OCC1CCCO1)N1CCOCC1 (stereo not drawn)
 : >26, ·
> COc1cccc(NS(=O)(=O)c2cn(C)c(=O)n(C)c2=O)c1
 : ·, i
> CC(C)(O/N=C(\C(=O)N[C@@H]1C(=O)N2C(C(=O)[O-])=C(C[n+]3ccccc3)CS[C@@H]12)c1csc(N)n1)C(=O)O
 : ·, i
> Cc1ccc(OCCCn2c(CO)nc3ccccc32)cc1
 : i, i
> O=S(=O)(NCCc1ccc2c(c1)OCCO2)c1cccs1
 : >57, i
> CC1CCN(C(=O)Cn2c(=O)n(Cc3ccc4c(c3)OCO4)c(=O)c3ccccc32)CC1
 : >57, i
> O=C(NCCN1CCOCC1)c1cccc(S(=O)(=O)N2CCCCCC2)c1
 : >57, i
> Clc1ccc(Cn2ncc3c(N4CCCC4)ncnc32)cc1
 : ·, i
> CC1CCN(CC(C)OC(=O)c2ccc3c(c2)OCCO3)CC1 (stereo not drawn)
 : ·, i
> Cc1nc2ccccc2n1CC(=O)OCC(=O)Nc1ccc2c(c1)OCCO2
 : >57, i
> O=C(Cn1cc(C(=O)c2cccs2)c2ccccc21)NCc1cccs1
 : ·, i
> CCOCCCNC(=O)C1CCCN1C(=O)NC1CCCCC1 (stereo not drawn)
 : >57, i
> COc1cccc(C2CC(c3ccccc3)n3ncnc3N2)c1 (stereo not drawn)
 : ·, i
> CC(C)(C)C(=O)CNS(=O)(=O)c1ccc(S(=O)(=O)NC2CCCC2)cc1
 : >57, i
> O=C(Nc1cc(C(=O)N2CCOCC2)cc(C(=O)N2CCOCC2)c1)c1cc(F)c(F)cc1Cl
 : >57, i
> O=C(NCc1ccccc1)N1CCN(c2ccc(Cl)c(Cl)c2)CC1
 : >57, i
> CCCCCC1=C2CNC(CC(C)C)(C(=O)OC)C=C2C(C)C1=O (stereo not drawn)
 : ·, i
> CCOC(=O)c1c(NC(=O)CSc2nnc(CNc3ccc(OC)cc3)n2C)sc(C)c1C
 : >57, i
> Cn1cccc1Cc1nnc(SCC(=O)Nc2ccccc2F)n1-c1ccc(F)cc1
 : ·, i
> O=C(Nc1ccccc1OC(F)F)c1ccc(F)cc1
 : >57, i
> CCCOc1ccccc1C1CC(=O)Nc2cc3c(cc21)OCO3 (stereo not drawn)
 : >57, i
> COCCNC(=O)C1CC(c2cccc(OC)c2)=NO1 (stereo not drawn)
 : >57, i
> COc1ccc2cc(C#N)c(N3CCN(Cc4nnnn4CCC(C)C)CC3)nc2c1
 : >57, i
> CCOc1cc(CN2CCN(c3cccc(C(F)(F)F)c3)CC2)ccc1O
 : ·, i
> COc1cc(OC)c(C2=NOC(C(=O)NCc3ccc4c(c3)OCO4)C2)cc1Cl (stereo not drawn)
 : >57, i
> CC(C)OC(=O)CSc1nc2ccccc2s1
 : ?, i
> Nc1ccn([C@H]2O[C@@H](COP(=O)(O)O)[C@@H](O)[C@H]2O)c(=O)n1
 : ·, i
> O=C(CNc1ccccc1)Nc1ccc(F)cc1
 : >57, i
> COc1cc(NC(=O)COc2cccc(OC)c2)cc(OC)c1
 : ·, i
> Cc1occc1C(=O)NCc1ccccn1
 : >57, i
> CCOC(=O)CNC(=O)c1cc(C)oc1C
 : >57, i
> COc1ccccc1CNc1ccnc(-c2ccccc2C(F)(F)F)n1
 : ·, i
> CCOC(=O)C1CCN(C(=O)CN(c2cccc(C(F)(F)F)c2)S(C)(=O)=O)CC1
 : >57, i
> Nn1c(SCC(=O)Nc2ccccc2F)nnc1-c1cccnc1
 : >57, i
> O=C(COC(=O)C1CC1)Nc1ccc(Oc2ccccc2)cc1
 : ·, i
> CCC(c1nnnn1CCOC)N1CCN(Cc2ccccc2OC)CC1 (stereo not drawn)
 : >57, i
> CS(=O)(=O)Nc1cccc(-c2ccc3ncnc(NC4CCNCC4)c3c2)c1
 : ·, i
> Cn1c(SCC(=O)N2CCc3ccccc32)nnc1C1CC1
 : >57, i
> CC1CCc2nc(NCCO)nc(C(F)(F)F)c2C1 (stereo not drawn)
 : >57, i
> Cc1ccc(C(=O)N2CCN(c3ccc(Cl)cc3)CC2)cc1
 : >57, i
> CCOC(=O)N1CCN(C(=O)c2cccc(NC3=NC4CS(=O)(=O)CC4S3)c2)CC1 (stereo not drawn)
 : >57, i
> Cc1cc(C)cc(NC(=O)C2CCN(S(=O)(=O)c3c(C)n[nH]c3C)CC2)c1
 : >57, i
> O=C(O)C1=CC(=C(c2ccc(O)c(C(=O)O)c2)c2ccc(O)c(C(=O)O)c2)C=CC1=O
 : ·, i
> CCNc1nc(NC(C)(C)C)nc(SC(C(C)=O)C(C)=O)n1
 : >57, i
> COc1ccc(-c2nc(CS(=O)CC(=O)NCc3ccc(Cl)cc3)c(C)o2)cc1 (stereo not drawn)
 : ·, i
> Nn1c(=O)c2ccccc2n2c(SCc3ccccc3)nnc12
 : ·, i
> O=C(OCc1nnc(-c2ccccc2)o1)c1cc(S(=O)(=O)N2CCOCC2)c(Cl)cc1Cl
 : >57, i
> O=c1cc(CNCCCO)c2ccccc2[nH]1
 : >57, i
> O=P(O)(O)COc1ccccc1P(=O)(c1ccccc1)c1ccccc1
 : >57, i
> Cc1cc(N2CCN(C(c3ccccc3)c3ccccc3)CC2)n2ncnc2n1
 : >57, i
> COCn1c(COc2ccccc2)nc2ccccc21
 : ·, i
> O=C(NCC1CCCO1)c1cccc(NC(=O)c2ccco2)c1 (stereo not drawn)
 : >57, i
> CCOc1cccc(/C(O)=C2/C(=O)C(=O)N(CCOC)C2c2ccco2)c1 (stereo not drawn)
 : >57, i
> Cc1nc(NC2CCCCC2)c2nc(-c3ccccc3)n(CCN3CCCC3)c2n1
 : ·, i
> NCCS(=O)O
 : ·, i
> Cc1ccc(CCNC(=O)C2CCN(S(=O)(=O)c3cccc4nonc34)CC2)cc1
 : >57, i
> CC(C)(C)C(=O)OCOC(=O)[C@@H]1N2C(=O)[C@@H](N=CN3CCCCCC3)[C@H]2SC1(C)C
 : ·, i
> CC1CCN(S(=O)(=O)c2ccc(Cl)cc2Br)CC1
 : ·, i
> CC1=C(C(=O)OCC2CCCO2)C(c2ccccc2)NC(=O)N1 (stereo not drawn)
 : ·, i

(more compounds)
Results follow in this order: PK Bst, TsaE inh
> CCN1CCN(CC(=O)Nc2c(C(=O)OC)[nH]c3cccc(Cl)c23)CC1
 : >57, i
> N#CC1=C(N)Oc2nc(-c3ccccc3)[nH]c2C1c1cccnc1 (stereo not drawn)
 : >57, i
> CCN(CC)CCc1nc(-c2ccccc2)no1
 : ·, i
> Cc1ccc(C(=O)CN2CCC(NC(=O)C3CCCCC3)CC2)cc1
 : >57, i
> COc1ccc(C2CC(C(F)(F)F)n3nc(CO)c(Cl)c3N2)cc1OC (stereo not drawn)
 : >57, i
> O=C(CN(C(=O)CCC(=O)Nc1nccs1)c1ccc(F)c(Cl)c1)NCc1ccco1
 : >57, i
> CC(=O)Nc1ccc(S(=O)(=O)NC2=NCN(CCOC(=O)c3ccccc3)CN2)cc1
 : ·, i
> CC(C)Sc1nnc(Cn2c(=O)sc3ccccc32)n1-c1ccccc1
 : ·, i
> O=C(NC1CC1)c1ccc(COc2ccc(F)cc2)o1
 : >57, i
> COc1ccccc1NC(=O)Cc1noc(CSc2nnc(C)s2)n1
 : >57, i
> COc1ccc(-n2c(/C=C(\C)O)nc(=O)c3c(C)cc(C)nc32)cc1
 : >57, i
> O=C(NCCc1ccc2c(c1)OCCO2)c1cc2ccccc2o1
 : >57, i
> CCCn1nnc(NCc2ccc(OCc3cccs3)c(OC)c2)n1
 : >57, i
> CCC(Oc1ccccc1)C(=O)Nc1ccccc1OC (stereo not drawn)
 : ·, i
> COc1cc(NS(C)(=O)=O)c(OC)cc1NC(=O)c1cccc(F)c1
 : >57, i

Full records as entered above. Screens in order: PK Bst | TsaE inh
Shown for O=C(COC(=O)C1CC1)Nc1ccc(Oc2ccccc2)cc1 = · | i
Shown for CCCCCC1=C2CNC(CC(C)C)(C(=O)OC)C=C2C(C)C1=O (stereo not drawn) = · | i
Shown for Cc1cc(C)cc(NC(=O)C2CCN(S(=O)(=O)c3c(C)n[nH]c3C)CC2)c1 = >57 | i
Shown for O=S(=O)(NCCc1ccc2c(c1)OCCO2)c1cccs1 = >57 | i
Shown for CC1CCc2nc(NCCO)nc(C(F)(F)F)c2C1 (stereo not drawn) = >57 | i

(more compounds)
Results follow in this order: PK Bst, TsaE inh
> CCC(CC)C(=O)Nc1cc(OC)c(OC)cc1C(=O)O
 : >57, i
> Cc1cccc(OCc2nc(-c3nonc3N)no2)c1C
 : >57, i
> O=C(Nc1ccc2snnc2c1)N1CCN(c2ccccc2)CC1
 : ·, i
> COc1ccc(NC(=O)Nc2ccccc2C(N)=O)cc1OC
 : ·, i
> COc1cccc(CNc2nc3ccccc3n2CCN2CCCCC2)c1OC
 : ·, i
> Cc1cc(C(=O)OCC(=O)NCc2ccco2)c(C)n1-c1ccccc1
 : >57, i
> COC(=O)[C@@]1(Cc2ccc(F)cc2)[C@@H]2[C@@H](CC(=O)[C@H]2CC(=O)C(=O)N(C)C)CN1C(=O)c1ccccc1
 : ·, i
> O=C(NCCN1C(=O)C2C3C=CC(C3)C2C1=O)N1CCCCC1 (stereo not drawn)
 : ·, i
> CN(C)S(=O)(=O)N1CCN(S(=O)(=O)N(C)C)CC1
 : >57, i
> Cc1ccc(-c2csc3nc(=O)c(C)nn23)cc1
 : >57, i
> O=C(c1ccc(F)cc1)C1CCN(C(=O)c2ccncc2)CC1
 : >57, i
> Nc1c(C(=O)NCc2ccccc2)nnn1Cc1ccc(F)cc1
 : ·, i
> CC(OC(=O)c1ccccc1NCc1ccco1)C(=O)Nc1ncc(Cl)cc1Cl (stereo not drawn)
 : >57, i
> CCN(C1CCCCC1)S(=O)(=O)c1ccc(OC)c(C)c1
 : >57, i
> Cc1cc(C)nc(NC2=NC3CCCCC3N2)n1 (stereo not drawn)
 : >57, i

In another format: entries from further up
N#CC1=C(N)Oc2nc(-c3ccccc3)[nH]c2C1c1cccnc1 (stereo not drawn)
  PK Bst: >57
  TsaE inh: i
CCN(CC)CCc1nc(-c2ccccc2)no1
  PK Bst: ·
  TsaE inh: i

Remaining list, next part:
Results follow in this order: PK Bst, TsaE inh
> O=C(Nc1ccccn1)C1CCN(S(=O)(=O)c2cccc3nonc23)CC1
 : >57, i
> CC(Sc1nc(-c2ccccc2)cc(C(F)(F)F)n1)C(=O)NCCN1CCOCC1 (stereo not drawn)
 : >57, i
> CCOc1ccc(-c2cc(CCCC(=O)Nc3cccc(OC)c3)no2)cc1
 : ·, i
> Cc1cccc(N2CCN(C(=O)c3cc4ccccc4oc3=O)CC2)c1C
 : ·, i
> COc1ccc(CCNC(=O)Cn2c(-c3nonc3N)nc3ccccc32)cc1OC
 : >57, i
> COc1cc(C2=NOC(C(=O)N3CCOCC3)C2)cc(OC)c1OC (stereo not drawn)
 : >57, i
> O=C(C1CC1)N1CCc2cc(S(=O)(=O)NCCC3=CCCCC3)ccc21
 : >57, i
> O=c1c2ccccc2nc2c3ccccc3c3nncn3n12
 : 0.9*, i
> CCCCC(CC)CN (stereo not drawn)
 : ·, i
> CC1CCCCN1CCNC(=O)c1cc2c(=O)n(C)c3ccccc3c2n1C (stereo not drawn)
 : ·, i
> CC1Cc2cc(C(=O)O)ccc2O1 (stereo not drawn)
 : >57, i
> O=C(Nc1ccccc1)OCc1ccccn1
 : >57, i
> C#CCOC(=O)c1ccccc1C(=O)n1nnc2ccccc21
 : >57, i
> CC(C)OC(=O)CN1C(=O)C(C)(C)Oc2ccc(C(=O)NC(C)(C)C)cc21
 : >57, i
> COc1ccc(-n2[nH]c(C)cc2=O)cc1
 : >57, i
> Cc1ccc2c(c1)NC(=O)C(CC(=O)NCCCN1CCN(C3CCCCC3)CC1)O2 (stereo not drawn)
 : ·, i
> CCOC(=O)c1cc(-c2ccc3c(c2)OCCO3)nc2c1c(C)nn2CCC#N
 : ·, i
> COCCn1c(SCC(=O)Nc2nnc(C)s2)nnc1-c1ccncc1
 : >57, i
> CN1CCc2c(sc3c2c(=O)n(-c2cccc(Cl)c2)c2nncn32)C1
 : >57, i
> CC1Cc2ccccc2N1C(=O)COC(=O)Cn1nnc(-c2ccccc2)n1 (stereo not drawn)
 : >57, i
> c1nc(N2CCNCC2)c2cc(-c3ccc4c(c3)OCO4)ccc2n1
 : ·, i
> Nc1ncnc2c1ncn2CCOc1ccccc1
 : ·, i
> O=C(CSc1nc(-c2ccco2)cc(C(F)(F)F)n1)NCC1CCCO1 (stereo not drawn)
 : >57, i
> O=C(CSc1nnnn1-c1ccc2c(c1)CCC2)NCc1cccs1
 : >11, i
> COc1ccccc1CNCc1cccs1
 : >57, i
> Cc1cc(C)c2cc(CN(CC3CCCO3)S(=O)(=O)c3ccc4c(c3)OCCO4)c(=O)[nH]c2c1 (stereo not drawn)
 : >57, i
> COc1ccc2[nH]c(=O)c(CN(CCO)S(=O)(=O)c3ccc4c(c3)OCCO4)cc2c1
 : >57, i
> Cc1c(Br)cc(C(=O)NCc2ccco2)c(C)c1C
 : i, i
> CC(C)OC(=O)CSc1nnc(-c2ccc(C(C)(C)C)cc2)n1N
 : >57, i
> CCc1ccc(Nc2oc(C)cc(=O)c2C(C)=O)cc1
 : ·, i
> Cc1cc(Nc2cccc(C(F)(F)F)c2)n2nc(C)nc2n1
 : >57, i
> Cn1c(CCN2CCN(c3ccc(F)cc3)CC2)nc2cc(NC(=O)c3ccco3)ccc21
 : ·, i
> c1ccc(N2CCN(c3ncnc4scc(-c5cccs5)c34)CC2)cc1
 : >57, i

The list is partial; the hit share may differ from the screen's.
